# HSD17B inh – qHTS Assay for Inhibitors of HSD17B4, hydroxysteroid (17-beta) dehydrogenase 4; Potency, µM (highest dose often 57.1 µM), without a hit: at the top dose activity change, negative = inhibition, usual class: inhibitors; hit rate 7.6% among 75,000; recombinant HSD17B10, NADH fluorescence kinetic; many of its hits are not listed in these tables; 3-hydroxyacyl-CoA dehydrogenase type-2 (Homo sapiens), Q99714; active means well fitted inhibition curve with a large enough effect; inconclusive means small, poorly fitted or top-dose-only effect; inactive means no such curve, though single readings can be large or run the other way;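 further: the protocol describes HADH2 (HSD17B10) and not the HSD17B4 of the title; nearly all actives have a fitted effect of over 70% in size; most hits overshoot -100% by far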
#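 20 nM HADH2, pH 9.0 Tris/Tween; cpd preinc 15 min RT; start w/ 1 mM NAD+ + 90 uM b-hydroxybutyryl-CoA; kinetic fluor ex360/em450 q30s x 4 min; delta last-first.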
# An asterisk follows results filed as active; ? = inconclusive; [ ] = remark or other dose. On the % scale 0 is the no-effect control and ±100 the full control effect; potency means the concentration at half of the fitted maximal effect. An excerpt; count on the stated rates, not on these rows.
SMILES,HSD17B inh
O=C(NC1CCCCCCC1)C1=COCCO1,14%
CNc1nc(-c2ccccc2OC)nc2ccccc12,-22%
Cc1ccc2c(c1)N(CCC(=O)NCCN1CCOCC1)C(=O)CO2,14%
CCOC(=O)CNC(=O)CSc1nc2nc(C)c(Br)cc2[nH]1,0%
O=c1[nH]c2ccccc2c2nc3ccccn3c12,?
COc1cc(/C=N/n2cnnc2)ccc1OC(=O)c1cccnc1,24%
C[n+]1cnn2c1SCC1(COC1)C2,3%
O=C1CN(C(=O)CN2CCCC2)C(c2ccccc2)c2cc(Br)ccc2N1 (stereo unspecified),7%
CCCCCCN1Cc2ccccc2C1,6%
CCc1cc2c(=O)c(-n3cnc4ccccc43)coc2cc1O,?
Cc1cc(OCC(=O)NCCO)ccc1Cl,6%
CC(=O)c1c(C)[nH]c(C(=O)NCc2ccccn2)c1C,-5%
Cc1ccc(CNC(=O)c2coc(=O)c3ccccc23)o1,13%
CCN(CC)C(=O)C1CCN(S(=O)(=O)c2ccc(C3CNC(=O)C3)cc2)CC1 (stereo unspecified),8%
COc1ccc2cc(CN(CCCN3CCOCC3)Cc3nnnn3C3CCCC3)c(=O)[nH]c2c1,?
CCCN1CCN(C(=O)C2CCN(S(=O)(=O)c3ccc4c(c3)oc(=O)n4C)CC2)CC1,6%
COc1cccc(NS(=O)(=O)c2c(C)cc(C)cc2C)c1,-22%
COc1cccc(OC)c1OCCCSc1nc(C)cc(=O)[nH]1,2%
COC(=O)CSc1nnc2c3c4c(sc3nc(-n3nc(C)cc3C)n12)COC(C)(C)C4,25µM*
CN(C(=O)CSc1nnnn1-c1ccccc1)C1CCCCC1,-4%
CCOCCCNC(=O)C(c1ccc(Cl)cc1)N1CCN(C(=O)c2ccco2)CC1 (stereo unspecified),-3%
Cc1c(NC(=O)CN2CC(C)OC(C)C2)c(=O)n(-c2ccccc2)n1C (stereo unspecified),6%
CCOC(=O)CC1C(=O)NCCN1C(=O)Nc1ccccc1 (stereo unspecified),1%
CN(C)S(=O)(=O)c1ccc(NC(=O)c2cc3ccccc3o2)cc1,-8%
COc1c(Cl)cc(-c2noc(C)c2C(=O)NC(C)C)cc1Cl,3%
COCCn1c(-c2ccc(OC)cc2)cnc1N,1%
N#Cc1c(N)nc2c(c1-c1ccncc1)CCCC2,32µM*
Nc1nc(SCC(=O)NCC2CCCO2)n[nH]1 (stereo unspecified),8%
c1ccc(N2CCN(C3CCSC3)CC2)cc1 (stereo unspecified),0%
O=S(=O)(Cc1ccccc1)N1CCN(C/C=C/c2ccccc2)CC1,11%
CC(=O)c1cn(CC(=O)NCc2cccnc2)c2ccccc12,1%
Cc1ccc2c(CC(=O)NC3=NCCS3)coc2c1,-18%
CC(=O)c1ccc(OCC(O)CN2CCOCC2)cc1 (stereo unspecified),9%
CCc1c(C)nc2ncnn2c1N1CCC(C(=O)N2CCN(c3ccccc3)CC2)CC1,11%
Cn1cccc1C(=O)N1CCC2(CCN(C(=O)Nc3ccccc3)CC2)CC1,0%
COc1ncc2nc(-c3cn(C)c4ccccc34)c(=O)n(C)c2n1,-25%
CCS(=O)(=O)N1CCCC(C(=O)NC2CCCC2)C1 (stereo unspecified),8%
O=C(NCc1cccs1)C(Cc1ccccc1)NS(=O)(=O)c1cccs1 (stereo unspecified),-2%
CC(=O)N1CCC2(CC1)CN(Cc1ccc(C#N)cc1)C2,0%
O=c1n(Cc2ccccc2Cl)c2sc3c(c2c2ncnn12)CCCC3,8%
CCOc1ccc(N(CC(=O)O)S(=O)(=O)c2ccc(OC)c(OC)c2)cc1,-2%
COc1ccc(C(=O)n2nnc3ccccc32)cc1Br,3%
N#Cc1cccc(NC(=O)N2CC3(CCN(C(=O)c4cc(C(F)(F)F)cc(C(F)(F)F)c4)CC3)C2)c1,0%
O=C(O)c1ccccc1N[C@H](c1ccccc1)c1ccc2cccnc2c1O,4µM*
C=CCn1c(Cc2ccc(OC(C)C)c(Cl)c2)nnc1SCC(N)=O,5%
O=C(CCN1C(=O)C2C3C=CC(C3)C2C1=O)NCCc1ccccc1Cl (stereo unspecified),5%
COc1ccc(OC)c(C2=NOC(C(=O)NCCN3CCOCC3)C2)c1 (stereo unspecified),-22%
CN(c1ccccc1C(=O)N1CCc2ccccc2C1)S(C)(=O)=O,-4%
CCCCN(CCCC)CCC(O)c1cc2c(Cl)cc(Cl)cc2c2cc(C(F)(F)F)ccc12 (stereo unspecified),-24%[25.6 µM]
COc1cccc(N2CCN(C3CCCC(C)C3)CC2)c1 (stereo unspecified),-5%
O=C(NCCC1=CCCCC1)C1CCN(C(=O)Nc2ccccc2)CC1,0%
COCC(=O)N(Cc1cc2cc(OC)ccc2[nH]c1=O)c1ccccc1,32µM*
Cc1ccc(Cl)cc1N1CCN(C(=O)c2ccc(CN3CCOCC3)cc2)CC1,-5%
COc1ccc(C(C)NC(=O)C2CCCO2)cc1OC (stereo unspecified),1%
COc1ccccc1NC(=O)N1CCCC1C(=O)NCc1ccccc1 (stereo unspecified),6%
COC(=O)c1c(NC(=O)CSc2nc3c(c(=O)n(C)c(=O)n3C)n2C(C)C)sc(C)c1C,-4%
COC(=O)c1ccc(N2CCN(C)CC2)c(NC(=O)c2cc3ccccc3o2)c1,0%
CCOc1ccc(OCC)c(NC(=O)CC2Oc3ccccc3NC2=O)c1 (stereo unspecified),2%
O=C(NCc1ccccc1)C1CCCN(C(=O)Nc2ccccc2)C1 (stereo unspecified),-4%
COC(=O)NC(c1cccc(F)c1)[C@]1(C(C)=O)CCCC1=O (stereo partly specified),-2%[11.4 µM]

# The listing continues.
SMILES,HSD17B inh
OC(COc1c(Br)cc(Br)cc1Br)CN1CCOCC1 (stereo unspecified),5%
CCOC(=O)c1c(C)n(C)c2cc(OCCN(CC)CC)ccc12,3%
Nc1cc(C(=O)OCC(=O)N2CCCC2)ccc1Cl,?
CCC(C)(C)n1nnnc1C(c1cc2cccc(C)c2[nH]c1=O)N1CCCC1 (stereo unspecified),-17%
CCCCCSc1nc2c(c(=O)[nH]c(=O)n2C)n1CCc1ccccc1,-2%
COC(=O)COc1nc(C)c2c(c1C#N)CC(C)(C)OC2,-2%
COc1ccccc1C(=O)Nc1ccc(S(=O)(=O)Nc2cc(C)on2)cc1,3%
C=CCn1c(SCC(=O)Nc2ccccc2OC)nc(O)c(CC)c1=O,-6%
COc1cc(-c2nc(-c3ccccn3)no2)cc(OC)c1OC,2%
COc1cc(NC(=O)c2cccs2)c(OC)cc1NC(=O)CCn1nnc2ccccc21,58%[activator]
CCn1ncc(C2=NOC(C(=O)Nc3cc(OC)c(Cl)cc3OC)C2)c1C (stereo unspecified),3%
CCOC(=O)c1cnc(SCC(=O)Nc2nc(C)c(C)s2)nc1N,0%
O=C(COc1ccccc1)Nc1ccc2c(c1)nc1n2CCOC1,0%
O=c1c2c3nc4ccccc4nc3n(-c3ccc4c(c3)OCCO4)c2ncn1CC1CCCO1 (stereo unspecified),4%
O=C(O)c1ccc(C(=O)c2ccccc2C(=O)O)cc1C(=O)O,?
c1csc(CNc2ncnc3sccc23)c1,-1%
Cc1cccc(NS(=O)(=O)c2ccc(C)c(C(=O)OCC(=O)Nc3cc(C)on3)c2)c1,-12%
COc1ccc(-c2nnc(SCC(=O)Nc3cc(C)on3)n2N)cc1OC,7%
Nc1nc2n(n1)C(c1ccccc1)CC(c1ccc(F)cc1)N2 (stereo unspecified),8%
CN(C)CCN1C(=O)C(=O)/C(=C(/O)c2ccc(F)cc2)C1c1ccccc1 (stereo unspecified),-6%
CC(C)COP(=O)(c1ccc(N(C)C)cc1)C(O)c1ccccn1 (stereo unspecified),0%
O=C(O)c1cc([N+](=O)[O-])ccc1NCCCc1ccccc1,?
COC(=O)[C@@H]1C[C@H]1[C@@H](NC(=O)c1ccc(Br)cc1)c1ccccc1,-8%
CCOc1ccc(Cl)cc1S(=O)(=O)N1CCN(c2ccc(F)cc2)CC1,-1%
O=C(CSc1nnc(-c2cccs2)n1-c1ccccc1)NCc1ccc2c(c1)OCO2,-1%
CC1CCCN(c2nc3c(c(=O)[nH]c(=O)n3C)n2CCCc2ccccc2)C1 (stereo unspecified),-5%
Cc1noc(C)c1C(=O)Nc1ccccc1-c1ccccc1,9%
Cc1ccc2c(c1)CCCN2C(=O)c1ccncc1,4%
CCN(CC)S(=O)(=O)c1ccc2nc(CSc3nnnn3-c3ccc(O)cc3)[nH]c2c1,14%
COc1ccc(C)cc1S(=O)(=O)N(C)CC(=O)NCc1ccco1,-7%
COc1ccc(Cn2nnnc2C(c2cc3cccc(C)c3[nH]c2=O)N2CCOCC2)cc1 (stereo unspecified),?
O=C(Nc1ccc(S(=O)(=O)NC2CCCC2)cc1)c1cnccn1,?
CC1(C)CNC(=O)CC(C)(C)N1O,0%
CCOC(=O)c1ccc(Oc2nc(OC)nc(N(C)C)n2)cc1,1%
CCCCC(=O)NCCc1c(Cc2ccccc2)[nH]c2ccccc12,-29%
Cc1cnc(C(=O)Nc2cccc3ncccc23)cn1,-9%

# Molecules listed so far with a CF3 group (2):
SMILES,HSD17B inh
N#Cc1cccc(NC(=O)N2CC3(CCN(C(=O)c4cc(C(F)(F)F)cc(C(F)(F)F)c4)CC3)C2)c1,0%
CCCCN(CCCC)CCC(O)c1cc2c(Cl)cc(Cl)cc2c2cc(C(F)(F)F)ccc12 (stereo unspecified),-24%[25.6 µM]

# The listing continues.
SMILES,HSD17B inh
COCCCN(C(=O)Nc1ccc(C)c(C)c1)C(C)c1ccccn1 (stereo unspecified),4%
COc1cccc(CNc2ccc(S(=O)(=O)Nc3nccs3)cc2)c1O,-3%
C=CCn1c(SCC(=O)c2ccc(O)c(O)c2)nnc1-c1ccccc1OC,-14%
C[C@@H]1CN2[C@H](c3ccc(Br)cc3)[C@H](C)CC[C@H]2C(=O)O1,1%[11.4 µM]
CC(Oc1ccc(Cl)cc1Cl)C(=O)Nc1ccncc1 (stereo unspecified),12%
Cc1ccc(-n2c(SCn3nnc4ccccc4c3=O)nnc2-c2cccnc2)c(C)c1,2%
CC1(C)Cc2c(C#N)c(NC3CCCCC3)nc(-c3ccco3)c2CO1,16µM*
O=C1CSc2ccccc2N1Cc1ccccc1F,-3%
CC(C)NC(=O)c1ccc2c(c1)nnn2C,2%
CN(C)S(=O)(=O)c1ccc(S(=O)(=O)N(Cc2ccccn2)Cc2ccco2)cc1,7%
CCOc1ccc2nc(N3CCC(C(=O)N4CCN(c5ncccn5)CC4)CC3)sc2c1,10%
CCOC(=O)CCSCC(=O)Nc1nnc(C)s1,-3%

# As entered above.
# Entry of `CC1(C)Cc2c(C#N)c(NC3CCCCC3)nc(-c3ccco3)c2CO1` in HSD17B inh: 16µM*
# Entry of `CN(C)S(=O)(=O)c1ccc(S(=O)(=O)N(Cc2ccccn2)Cc2ccco2)cc1` in HSD17B inh: 7%
# Entry of `CC(Oc1ccc(Cl)cc1Cl)C(=O)Nc1ccncc1` (stereo unspecified) in HSD17B inh: 12%
# Entry of `COc1cccc(CNc2ccc(S(=O)(=O)Nc3nccs3)cc2)c1O` in HSD17B inh: -3%

# Some of these compounds in order of number of heavy atoms, smallest number first:
SMILES,HSD17B inh
CC(C)NC(=O)c1ccc2c(c1)nnn2C,2%
CCOC(=O)CCSCC(=O)Nc1nnc(C)s1,-3%
C[C@@H]1CN2[C@H](c3ccc(Br)cc3)[C@H](C)CC[C@H]2C(=O)O1,1%[11.4 µM]
COCCCN(C(=O)Nc1ccc(C)c(C)c1)C(C)c1ccccn1 (stereo unspecified),4%
COc1cccc(CNc2ccc(S(=O)(=O)Nc3nccs3)cc2)c1O,-3%
C=CCn1c(SCC(=O)c2ccc(O)c(O)c2)nnc1-c1ccccc1OC,-14%
Cc1ccc(-n2c(SCn3nnc4ccccc4c3=O)nnc2-c2cccnc2)c(C)c1,2%

# (continued)
SMILES,HSD17B inh
Cn1c(-c2ccccc2)cc(=O)c2ccccc21,6%
Cc1ccc(S(=O)(=O)N2CCN(C(=O)CSC3CCCC3)CC2)c(C)c1,-6%
C/C(CCC(=O)OC[C@@H]1O[C@H](C#Cc2ccccc2)C=C[C@@H]1Oc1ccc(C)cc1)=N/OC[C@@H](O)COCc1ccco1,1%[11.4 µM]
COC(=O)CC1C(C)(C)C(O)C2CC3=C4C=C(OC)OC(c5ccoc5)[C@]4(C)CCC3[C@@]1(C)C2=O (stereo partly specified),2%
N#Cc1cccc(-n2nnnc2-c2ccc3c(c2)OCO3)c1,4%
CCc1ccc(CN(C)CCc2ccccn2)cc1,1%
Brc1ccc2[nH]ncc2c1,6%
CCOC(=O)N1CCN(C(=O)CCc2ccc(S(=O)(=O)NCCc3ccccc3)cc2)CC1,-13%
O=c1c2ccccc2[nH]c(=S)n1C1CCCCC1,0%
CC(=O)c1cn(CC(=O)NCC2CCCO2)c2ccccc12 (stereo unspecified),-3%
CC(C(=O)Nc1ccccc1-c1ccccc1)N1CCOCC1 (stereo unspecified),12%
COc1ccc(CCNC(=O)C2(C)CCC(=O)N2CCC(C)C)cc1OC (stereo unspecified),0%
CCc1c(O)nc(SCC(=O)Nc2ccc3c(c2)CCC3)[nH]c1=O,-5%
COc1ccc(C(=O)Nc2nc3cc(OC)c(OC)cc3c(=O)[nH]2)cc1,-3%
O=C(c1cccnc1)N1CCCc2ccccc21,5%
CCOc1ccc(N(CCC#N)S(=O)(=O)c2ccc(OC)cc2)cc1,1%

# Screening data deposited in PubChem by National Center for Advancing Translational Sciences (NCATS).
